RecA intein inh: Mtb RecA intein splicing inhibitors, primary screen, biochemical, fluorescence, HTS; 0.75% of 290,000 active; cell-free RecA intein splicing; Protein RecA (Mycobacterium tuberculosis (strain ATCC 25618 / H37Rv)), P9WHJ3; inhibition, %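 (about 9 µM by stock and volumes)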; in the data active = inhibition above about 30%; inconclusive = no clear call, values can overlap the other calls;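 note: 0% = vehicle wells and 100% = reference inhibitor control wells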
Target sequence (P9WHJ3 whole entry, looked up): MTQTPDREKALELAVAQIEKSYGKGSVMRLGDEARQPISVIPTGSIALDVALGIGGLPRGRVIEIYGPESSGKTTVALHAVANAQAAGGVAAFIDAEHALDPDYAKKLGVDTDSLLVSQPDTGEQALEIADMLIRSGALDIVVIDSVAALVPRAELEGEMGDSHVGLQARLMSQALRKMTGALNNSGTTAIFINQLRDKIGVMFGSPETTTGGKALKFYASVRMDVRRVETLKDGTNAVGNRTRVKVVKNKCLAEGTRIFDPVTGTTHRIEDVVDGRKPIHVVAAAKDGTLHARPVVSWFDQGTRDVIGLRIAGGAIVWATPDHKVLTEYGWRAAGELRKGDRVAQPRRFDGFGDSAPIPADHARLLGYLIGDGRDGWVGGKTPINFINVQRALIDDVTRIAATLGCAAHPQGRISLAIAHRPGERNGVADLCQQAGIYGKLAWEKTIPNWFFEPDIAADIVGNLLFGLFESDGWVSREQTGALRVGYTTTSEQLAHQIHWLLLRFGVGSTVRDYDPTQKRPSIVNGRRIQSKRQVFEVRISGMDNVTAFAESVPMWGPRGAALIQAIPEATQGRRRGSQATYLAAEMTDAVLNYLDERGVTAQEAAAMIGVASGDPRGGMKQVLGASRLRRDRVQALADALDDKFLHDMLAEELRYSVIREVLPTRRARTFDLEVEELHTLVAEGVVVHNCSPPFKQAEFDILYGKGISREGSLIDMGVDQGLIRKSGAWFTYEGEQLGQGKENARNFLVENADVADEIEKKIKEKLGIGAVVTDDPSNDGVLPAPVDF
Arbovirus inh: antivirals against arbovirus infection, primary screen, cell-based, full library, 10K replicate subset | arbovirus infection cell-based antiviral screen | inhibition, % at 10 µM | 0.37% of 200,000 active;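 active = inhibition from about 30%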;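 note: bluetongue infection of BSR cells; cell survival read as ATP light after 72 h; 0% = infected wells without compound and 100% = uninfected wells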
Mtb growth: M. tuberculosis H37Rv growth inhibitors, H37Rv strain (AID 1626); inhibition, % at 10 µM; hits with a dose series show IC50 in µM; 0.95% of 220,000 active; M. tuberculosis H37Rv growth inhibition; higher % means a stronger effect;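 active = confirmed in a dose series; inconclusive = inhibition above 80% but not taken into the dose series; inactive = below 80% or under 30% at every dose of the series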;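 note: bacteria incubated seven days before Alamar blue readout; 0% = bacteria only wells and 100% = bacteria with antibiotic wells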
YopH inh: YopH tyrosine phosphatase inhibitors, primary screen, biochemical, fluorescence Ex485/Em525 | YopH tyrosine phosphatase [Yersinia enterocolitica] | 0.16% of 140,000 active | inhibition, %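 (about 10 µM by stock and volumes)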 | AID 898, 2007;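 active = inhibition of 50% or more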;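 note: controls were vehicle for no effect and minimum signal wells for full effect; inactives centre near -20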
Mtb betalactam: beta-lactam sensitization of Mtb H37Rv, H37Rv; M. tuberculosis H37Rv growth with meropenem, percent inhibition; hits of this screen are not shown here; 0.27% of 330,000 active; inhibition, % at 25 µM; AID 434955, 2010;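 active = about 74% or more and at least 40 points above the plate without the antibiotic, then above 30% in a dose series; inconclusive = first-round hits that could not be retested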;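 note: growth measured after seven days incubation then overnight dye step; 0% = bacteria only wells and 100% = bacteria with antibiotic; twin plates without the antibiotic show which effects depend on it; some results filed as inactive read as strong as hits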
Arbovirus inh repeat: second read-out of Arbovirus inh, no call of its own (marks repeat the call); inhibition, %; measured here: 10K subset replicate screen; many hits read low in the repeat;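 first of two repeat runs on a subset; 0% = infected and 100% = uninfected wells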
An asterisk follows results filed as active; ? = inconclusive; nt = no result given.

SMILES | RecA intein inh | Arbovirus inh | Mtb growth | YopH inh | Mtb betalactam | others
COc1ccc2c(Cl)c(-c3nnc4n3CCCCC4)sc2c1 | 2.8 | 1.4 | -2.6% | -42.5 | 19.0
O=C(NCCN1CCN(C(=O)c2cc3ccccc3oc2=O)CC1)c1cc2ccccc2oc1=O | -2.3 | 4.8 | -1.0% | -28.8 | -14.3
CCCCc1ccc(NC(=S)NN2CCOCC2)cc1 | -1.8 | 5.9 | 7.2% | 10.5 | 5.0
Cc1noc(NS(=O)(=O)c2ccc(NC(=O)CSc3ncccn3)cc2)c1C | nt | -1.0 | -12.4% | -24.8 | -4.5 | Arbovirus inh repeat=4.4
COc1ccc(N=Cc2c(OC)ccc3ccccc23)cc1 | 3.1 | nt | nt | nt | 96.0
CC(=O)NNc1nc2ccccc2s1 | -6.2 | -0.2 | -15.8% | -6.7 | -7.1
O=C(O)C1Cc2[nH]cnc2C(c2ccc(F)cc2)N1 (centres undefined) | 0.6 | -2.2 | -0.7% | nt | 5.9
O=C(/C=C/c1ccco1)NCc1ccc(F)cc1 | 1.5 | 2.5 | 3.5% | nt | -3.0
CCOC(=O)N1CCc2c(sc3c2c(=O)n(Cc2ccccc2)c(=O)n3CC(=O)NCC2CCCO2)C1 (centres undefined) | -2.3 | nt | nt | nt | 0.8
CCC1CCCCN1CCCNC(=O)c1cn(CC)c2ccc(S(=O)(=O)N(C)C3CCCCC3)cc2c1=O (centres undefined) | 0.3 | nt | nt | nt | 10.7
CCCCc1c(O)nc(SCC(=O)Nc2cccc3ccccc23)n(-c2ccccc2OC)c1=O | 4.4 | nt | nt | nt | 1.9
CCOc1ccc(C(=O)Cc2ccc3oc(C(=O)O)cc3c2)c(O)c1 | -4.3 | 4.7 | 55.8% | -9.8 | -0.7
COc1ccc(C2(CNS(=O)(=O)c3ccccc3)CCOCC2)cc1 | 1.5 | -0.2 | 4.9% | nt | 0.2
CCc1cc(C)cc(OCCNC(=O)c2cncc(Br)c2)c1 | 3.4 | -22.1 | 1.1% | -5.3 | -5.8
COc1ccc2[nH]c(CN3CCC(CO)(CCOc4ccccc4)CC3)c(C)c2c1 | 39.9* | -38.2 | -2.2% | nt | 70.3
Cc1ccc(N2C(=O)NC(=O)/C(=C/c3ccc(-c4ccc(C(=O)O)c(Cl)c4)o3)C2=O)cc1 | -1.9 | 10.6 | -0.7% | nt | 2.8
NS(=O)(=O)c1cccc(NC(=O)c2cc(=O)c3ccccc3o2)c1 | -2.9 | nt | nt | nt | -0.9
Cc1csc(NC(=O)CCC(=O)c2cccs2)n1 | 2.2 | 8.3 | 9.0% | nt | -8.0
Cn1nnc(NC(=S)NC(=O)c2ccc(-c3ccc(Br)cc3)o2)n1 | 0.7 | 2.8 | ? | nt | 96.7
COc1cc(C(=O)NCc2cn3ccccc3n2)cc(OC)c1OC | -3.9 | 1.5 | -7.5% | -21.1 | 5.9
COc1ccc(/C=N/NC(=O)C(=O)NCc2cccnc2)cc1 | 0.9 | 0.2 | -3.1% | nt | 8.1
CCCOC(=O)c1c(NC(=O)C2CCCO2)sc(C(=O)OC)c1C (centres undefined) | 6.9 | -19.3 | 0.6% | -18.4 | 4.1
Cc1ccc(-c2nn(-c3ccccc3)cc2C2CC(c3ccccc3)=NN2C(=O)CCC(=O)O)cc1 (centres undefined) | -0.8 | nt | -3.5% | nt | -6.4
O=C(CN1CCOCC1)Nc1ccc(Cl)cn1 | -0.2 | nt | nt | nt | -6.7
CCOP(=S)(OCC)N1CCOCCOCCN(P(=S)(OCC)OCC)CCOCCOCC1 | 6.7 | -3.9 | 4.9% | nt | -0.9
O=C1C2C3C=CC(CC3)C2C(=O)N1c1ccccc1[N+](=O)[O-] (centres undefined) | 2.5 | -1.3 | 3.1% | nt | 1.1
CC(=C/c1ccccc1)/C=N/NC(=O)c1ccc2nc[nH]c2c1 | -0.3 | -8.8 | 1.7% | -15.4 | 0.1
CC(OC(=O)CCC1CCCC1)C(=O)Nc1ccccc1[N+](=O)[O-] (centres undefined) | 9.8 | nt | nt | nt | 5.8
CCC(=O)Nc1ccc(C(=O)OCC(=O)c2cccs2)cc1 | -3.2 | nt | nt | nt | 8.1
O=C(CNS(=O)(=O)c1c(Cl)cccc1Cl)OCC(=O)c1ccc[nH]1 | 2.6 | nt | -9.7% | nt | -4.6
CC1CC(C)CN(C(=O)CSc2nnc(-c3ccc(F)cc3)o2)C1 (centres undefined) | 1.4 | -2.1 | 3.4% | -50.1 | ? | Arbovirus inh repeat=-2.5
CCOC(=O)c1oc2ccc(S(=O)(=O)N3CCOCC3)cc2c1C | 4.9 | -3.8 | -1.3% | -0.3 | -3.9
O=c1[nH]c(O)c(N=Nc2ccc(S(=O)(=O)N3CCOCC3)cc2)c(=O)[nH]1 | -0.4 | -2.8 | 3.4% | nt | -0.9
CCCC(=O)Nc1sc(C)c(C)c1C#N | -1.3 | -6.0 | -0.1% | nt | -8.3
Cc1noc(C)c1COc1ccccc1C(=O)N(C)CC(=O)Nc1ccc(F)cc1 | -0.7 | nt | nt | nt | -6.5
CCOC(=O)N1CCC(N2CCCC(CO)(Cc3cccc(Cl)c3)C2)CC1 (centres undefined) | 2.3 | 3.5 | 3.7% | nt | 3.3
O=C(NCc1ccc2c(c1)OCO2)C1CC(=O)N(C2CCCCCC2)C1 (centres undefined) | -3.0 | -3.4 | -8.3% | -22.1 | 0.1
Cc1cccc(NC(=O)c2cc(=O)[nH]c3ccccc23)c1 | 2.3 | nt | nt | nt | -0.3
CCOc1ccc(N2C(=O)CN(O)C=C3N=c4ccccc4=C32)cc1 | -5.2 | 0.1 | 39.0% | nt | 34.0
Cc1ccccc1C(=O)N1CCN(c2ncccn2)CC1 | -1.0 | nt | nt | nt | 1.0
O=C(O)C1Cc2ccccc2CN1C(=O)c1ccco1 (centres undefined) | 0.7 | nt | nt | nt | 5.0
Cc1c(C(=O)c2ccc(Cl)cc2Cl)cnc2cc3c(cc12)OCO3 | 9.9 | 1.6 | -7.8% | -17.4 | 9.9
O=C(OCc1cccc(Cl)c1)c1cc(S(=O)(=O)N2CCCCC2)ccc1N1CCOCC1 | 3.0 | nt | nt | nt | -2.1
CCN(CC)S(=O)(=O)c1cc(NC(=O)CNc2cccc(S(=O)(=O)N3CCOCC3)c2)ccc1C | 3.6 | nt | nt | nt | -10.0
CCC(=O)Nc1cccc(C2=NOC3(C2)C[C@@H](C(N)=O)N(C(=O)c2cc([N+](=O)[O-])cc([N+](=O)[O-])c2)C3)c1 (some centres undefined) | -0.7 | nt | 5.1% | nt | 68.3
CCn1c(=O)c2cc(C(=O)Nc3ccccc3OC)sc2c2ccccc21 | -5.8 | nt | -14.1% | nt | 3.1
O=C1CNc2ccc(C(=O)N3CCN(c4ccccn4)CC3)cc2N1 | 0.1 | nt | nt | nt | 1.3
C=CCNC(=S)NCc1ccccc1OC | 1.7 | 5.2 | -1.9% | nt | 4.0

Continued, overlapping the part above by two compounds.
SMILES | RecA intein inh | Arbovirus inh | Mtb growth | YopH inh | Mtb betalactam | others
O=C1CNc2ccc(C(=O)N3CCN(c4ccccn4)CC3)cc2N1 | 0.1 | nt | nt | nt | 1.3
C=CCNC(=S)NCc1ccccc1OC | 1.7 | 5.2 | -1.9% | nt | 4.0
NC(=O)CSc1nnc(-c2cccs2)n1Cc1ccco1 | -0.8 | nt | -6.9% | nt | 0.7
O=C(NCc1ccco1)Nc1ccc2snnc2c1 | 2.6 | -2.5 | -2.1% | -8.4 | -8.4
Cc1ccc(/S(C)=N/S(=O)(=O)c2ccc(C)cc2)cc1 (centres undefined) | nt | -3.7 | -4.8% | -109.5 | -8.4
COC(=O)C1=C(C)N(CCc2ccc(OC)cc2)C(=O)C1 | 0.7 | -2.4 | -9.2% | -2.3 | 8.6
CC(=O)c1c(C)[nH]c(C(=O)N2CCCCCC2)c1C | 5.0 | 5.6 | -14.7% | -18.6 | 5.7
O=C(c1ccc2c(c1)OCCCO2)c1cccs1 | 2.2 | 3.7 | 2.1% | -43.6 | -1.5
O=C(COc1ccccc1[N+](=O)[O-])N/N=C/c1ccc(O)cc1 | -2.9 | -10.8 | 4.8% | -25.9 | -3.0
COc1ccccc1-n1nnnc1SCC(=O)N(CC(C)C)C1CCS(=O)(=O)C1 (centres undefined) | -1.3 | nt | nt | nt | 2.8
CC1CN(C(=O)c2cc(-c3ccc(Cl)s3)nc3ccccc23)CC(C)O1 (centres undefined) | -2.6 | nt | nt | nt | 1.7
CC(C)C(C)(C#N)NC(=O)CSc1nc(C2CCCCC2)n(-c2ccccc2)n1 (centres undefined) | 0.4 | -12.0 | 5.2% | -20.5 | -5.8
CCN1CCN(C(=S)c2ccc(-c3ccccc3)cc2)CC1 | -0.4 | -7.9 | 1.2% | nt | 1.2
N/C(=N\OC(=O)c1cc([N+](=O)[O-])ccc1Cl)c1cccnc1 | 1.3 | nt | -5.0% | nt | -4.7
O=C(NC(=S)N1CCN(Cc2ccc3c(c2)OCO3)CC1)c1cccc(Br)c1 | 2.5 | 0.1 | ? | -25.5 | 72.7
CC(/C=C/c1ccco1)=N\NC(=O)C(O)c1ccccc1 (centres undefined) | 1.2 | -8.7 | -0.3% | -6.1 | -3.2
CC(=O)c1cccc(OCC(O)CN2CC=C(c3ccccc3)CC2)c1 (centres undefined) | -0.5 | -4.5 | -11.4% | -18.5 | -17.0
COc1ccc2oc(C(=O)NCC(Cc3ccccc3)N(C)C)c(C)c2c1 (centres undefined) | -3.8 | nt | nt | nt | 4.5
COc1ccc(-n2cc(CNCCCn3ccnc3)c(-c3ccccc3Cl)n2)cc1 | 0.0 | -23.7 | 62.1% | nt | 12.8
C=CCNC(=O)CN1CCC(NC(=O)c2ccco2)CC1 | -1.8 | 2.9 | -2.3% | nt | -10.6
COc1ccc(CS(=O)/C(Cl)=C(/Cl)C(=O)Nc2ccc(OC)nc2)cc1 (centres undefined) | nt | -27.9 | ? | nt | nt
CC1(c2ccc(Cl)cc2)NC(=O)N(CC(=O)Nc2cccnc2Cl)C1=O (centres undefined) | -2.0 | nt | nt | nt | -9.4
Cc1oc(C(C)(C)C)cc1C(N)=O | 1.5 | nt | 9.4% | nt | -3.3
CSc1nc2ccc(NC(=O)c3ccc(=O)n(C)n3)cc2s1 | 1.9 | -3.2 | 10.3% | nt | 19.5
CN1CCN(C(=O)c2sc(=S)n(-c3ccccc3)c2N)CC1 | -1.5 | 6.2 | 13.2% | -128.5 | -14.6
O=C(/C=C/c1ccc(Br)cc1)NCc1cccs1 | 0.1 | -4.5 | 8.3% | -7.1 | -1.0

Among those listed so far, these contain a thiophene ring, fused or not.
SMILES | RecA intein inh | Arbovirus inh | Mtb growth | YopH inh | Mtb betalactam | others
COc1ccc2c(Cl)c(-c3nnc4n3CCCCC4)sc2c1 | 2.8 | 1.4 | -2.6% | -42.5 | 19.0
CCOC(=O)N1CCc2c(sc3c2c(=O)n(Cc2ccccc2)c(=O)n3CC(=O)NCC2CCCO2)C1 (centres undefined) | -2.3 | nt | nt | nt | 0.8
Cc1csc(NC(=O)CCC(=O)c2cccs2)n1 | 2.2 | 8.3 | 9.0% | nt | -8.0
CCCOC(=O)c1c(NC(=O)C2CCCO2)sc(C(=O)OC)c1C (centres undefined) | 6.9 | -19.3 | 0.6% | -18.4 | 4.1
CCC(=O)Nc1ccc(C(=O)OCC(=O)c2cccs2)cc1 | -3.2 | nt | nt | nt | 8.1
CCCC(=O)Nc1sc(C)c(C)c1C#N | -1.3 | -6.0 | -0.1% | nt | -8.3
CCn1c(=O)c2cc(C(=O)Nc3ccccc3OC)sc2c2ccccc21 | -5.8 | nt | -14.1% | nt | 3.1
NC(=O)CSc1nnc(-c2cccs2)n1Cc1ccco1 | -0.8 | nt | -6.9% | nt | 0.7
O=C(c1ccc2c(c1)OCCCO2)c1cccs1 | 2.2 | 3.7 | 2.1% | -43.6 | -1.5
CC1CN(C(=O)c2cc(-c3ccc(Cl)s3)nc3ccccc23)CC(C)O1 (centres undefined) | -2.6 | nt | nt | nt | 1.7
O=C(/C=C/c1ccc(Br)cc1)NCc1cccs1 | 0.1 | -4.5 | 8.3% | -7.1 | -1.0

Screening results as filed in PubChem.

Some of the compounds tested; the hit share may differ from the screen's.
